CFTR F508del = total CFTR protein upregulators, primary screen, cell-based, HeLa F508del-CFTR, immunofluorescence, viability (AID 1224863); Cystic fibrosis transmembrane conductance regulator (Homo sapiens); HeLa F508del-CFTR, immunofluorescence total CFTR, 24 h; by the record results were divided by relative cell number; some inactives read as strong as hits; calls, or highest fold increase where a dose series was run; 0.1% of 10,000 active; in the data nearly all actives have a first-pass fold increase above 1.5; a few of its hits are not listed in these tables;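 note: total CFTR protein by anti-CFTR immunofluorescence in fixed cells; first pass at 25 µM or 10 µg/mL by library and series up to twice that; 1 = untreated cells; first-pass hits also needed half or more of the cells alive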
CFTR F508del fold 25 µM = further read-out of CFTR F508del, marked with its call; fold increase; measured here: primary screen single dose 25 uM; library dosed in µM
CFTR F508del fold 10 ug/mL = also measured in CFTR F508del; calls as there; fold increase; measured here: primary screen 10 ug/mL
CFTR F508del viability 25 µM = further read-out of CFTR F508del, marked with its call; viability, %; measured here: primary viability 25 uM; library dosed in µM;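 0% = killed and 100% = untreated cells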
CFTR F508del viability 10 ug/mL = second read-out of CFTR F508del, no call of its own (marks repeat the call); viability, %; measured here: primary viability 10 ug/mL;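 0% = killed and 100% = untreated cells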
* hit, by the source's call; i = inactive; · = not tested or not shown; & = joins results of further samples.

A first look, 7 compounds:
SMILES | CFTR F508del | CFTR F508del fold 10 ug/mL | CFTR F508del viability 10 ug/mL | others
O=C(O)CN1C(=O)COc2cc(Br)ccc21 | i | 1 | 101
C=CCn1c(C)cc(C(=O)COc2ccc(C)nc2[N+](=O)[O-])c1C | i | 1 | 96
Cc1n[nH]c(C)c1S(=O)(=O)N1CCc2ccc([N+](=O)[O-])cc21 | i | 1 | 64
CC(=O)c1c(SCC(=O)N(C)C)nc(=O)[nH]c1C | i | 1.1 | 108
CC1=CC(=O)N(c2cc(C)ccc2C)C1c1ccc(Cl)cc1 (stereo not drawn) | i | 1.1 | 102
CCOc1cc2c(=O)oc(-c3ccc(OC)cc3OC)nc2cc1OC | i | 0.97 | 108
CC(=O)c1c(C)[nH]c(C(=O)C(C)Sc2nnc(C)n2C)c1C (stereo not drawn) | i | 1.1 | 86

Main list, from the start:
SMILES | CFTR F508del | CFTR F508del fold 10 ug/mL | CFTR F508del viability 10 ug/mL | others
O=C(O)CN1C(=O)COc2cc(Br)ccc21 | i | 1 | 101
C=CCn1c(C)cc(C(=O)COc2ccc(C)nc2[N+](=O)[O-])c1C | i | 1 | 96
Cc1n[nH]c(C)c1S(=O)(=O)N1CCc2ccc([N+](=O)[O-])cc21 | i | 1 | 64
CC(=O)c1c(SCC(=O)N(C)C)nc(=O)[nH]c1C | i | 1.1 | 108
CC1=CC(=O)N(c2cc(C)ccc2C)C1c1ccc(Cl)cc1 (stereo not drawn) | i | 1.1 | 102
CCOc1cc2c(=O)oc(-c3ccc(OC)cc3OC)nc2cc1OC | i | 0.97 | 108
CC(=O)c1c(C)[nH]c(C(=O)C(C)Sc2nnc(C)n2C)c1C (stereo not drawn) | i | 1.1 | 86
COc1ccc(CCN(C)CCCC(C#N)(c2ccc(OC)c(OC)c2)C(C)C)cc1OC (stereo not drawn) | i | · | · | CFTR F508del fold 25 µM=1.1&1.1;CFTR F508del viability 25 µM=107&95
O=S(=O)(NCCSC1CCCC1)c1ccc(Cl)cc1 | i | 0.93 | 96
C=CCNC(=O)Cc1c(C)nc2nc(N)nn2c1C | i | 1 | 93
CC(NCc1ccccc1Br)c1ccc(-n2ccnc2)cc1 (stereo not drawn) | i | 0.91 | 80
N#C/C(=C/c1ccc(-c2ccccc2)cc1)c1nnc2n1CCCCC2 | i | 0.95 | 97
CCCCCCCCCCCCCCCC(=O)OC[C@H](NC(=O)C(Cl)Cl)[C@H](O)c1ccc([N+](=O)[O-])cc1 | i | · | · | CFTR F508del fold 25 µM=1;CFTR F508del viability 25 µM=92
Cc1nc(N2CCC(NS(C)(=O)=O)CC2)c2c3c(sc2n1)CCC3 | i | 0.99 | 85
Cc1ccc(CN2CCCN(S(=O)(=O)c3cccc4nsnc34)CC2)cc1 | i | 0.92 | 89
Clc1ccc(CN2CCN(c3ccc(Br)cn3)CC2)s1 | i | 1 | 105
CC1CN(S(=O)(=O)N2CCNC(=O)C2)CC(C)O1 (stereo not drawn) | i | 0.97 | 100
CCN[C@@H]1C[C@H](N)[C@@H](O[C@H]2OC(CN)=CC[C@H]2N)[C@H](O)[C@H]1OC1OC[C@](C)(O)[C@H](NC)[C@H]1O (stereo partly drawn) | i | · | · | CFTR F508del fold 25 µM=1.1;CFTR F508del viability 25 µM=111
O=S1(=O)CCC(N(Cc2cnn(-c3ccccc3)c2)Cc2cccs2)C1 (stereo not drawn) | i | 0.87 | 84
O=C(O)CCNC(=O)c1cnccn1 | i | 1.1 | 92
N#Cc1nc(C2CC2)oc1N1CCN(C(=O)C2CCN(CC(F)(F)F)CC2)CC1 | i | 0.89 | 80
CC(Sc1ncccc1Cl)c1nnnn1-c1ccccc1 (stereo not drawn) | i | 0.97 | 73
CC1=C(C#N)C(c2c(F)cccc2F)C(C#N)=C(C)N1 | i | 1.1 | 105
CC(=O)Oc1cccc(C(=O)O)c1OC(C)=O | i | · | · | CFTR F508del fold 25 µM=1.1;CFTR F508del viability 25 µM=84
O=C(O)CC1Sc2nnc(C3CCCO3)n2N=C1c1ccc(Cl)cc1 (stereo not drawn) | i | 0.96 | 109
O=C(O)c1cccc(N2CCNC2=O)c1 | i | 0.95 | 93
COc1ccc(-c2noc(COc3ccc(F)c(F)c3)n2)c(OC)c1 | i | 0.98 | 94
Cc1ccc2c(c1)C1CN(C)CCC1N2S(=O)(=O)c1ccc(C)c(C)c1 (stereo not drawn) | i | 1 | 96
O=C(CSc1nc2sc3c(c2c(=O)n1C1CCCCC1)CCCC3)c1ccc(O)cc1O | i | 0.93 | 102
Cc1cccc(CN2CCN(CN3C(=O)C(=O)N(C(C)C)C3=O)CC2)c1 | i | 1 | 95
CC(NC1CC1)c1ccc(O)cc1 (stereo not drawn) | i | 1.1 | 92
Cc1ccc(C(=O)OCc2nc(N)nc(N(C)C)n2)s1 | i | 1.1 | 91
CC1(C)O[C@@H]2CC3C4CCC5=CC(=O)CCC5(C)C4(F)C(O)CC3(C)[C@]2(C(=O)CCl)O1 (stereo partly drawn) | i | · | · | CFTR F508del fold 25 µM=0.69;CFTR F508del viability 25 µM=50
Cn1c(SCc2cc(-c3ccccc3)on2)nnc1-c1ccco1 | i | 0.99 | 94
CC[C@@H](CO)NCCN[C@@H](CC)CO | i | · | · | CFTR F508del fold 25 µM=1.1;CFTR F508del viability 25 µM=118
CC1CN(Cn2c(=O)oc3ccccc32)CCO1 (stereo not drawn) | i | 0.94 | 81
CC(=O)OCC(COC(C)=O)OC(C)=O | i | · | · | CFTR F508del fold 25 µM=1;CFTR F508del viability 25 µM=106
CC1CC(Sc2nc(N)c3c4c(sc3n2)CCCC4)C(=O)O1 (stereo not drawn) | i | 1 | 109
O=S(=O)(c1cccc2nsnc12)N1CCC(=Cc2cccc(F)c2)CC1 | i | 0.76 | 83
Cc1cc(C)c(OCC(=O)NC(C)(C#N)C2CC2)c(C)c1 (stereo not drawn) | i | 1 | 86
CCOC(=O)c1c(NC(=O)C2CCCC2)sc(C(=O)NC)c1C | i | 0.98 | 107
Cc1[nH]c(=O)[nH]c(=O)c1CCC(=O)N1CCCC1 | i | 0.9 | 98
CC(C)(C)OC(=O)N1CCC(NC(=O)CNC(=O)c2ccc(Br)o2)CC1 | i | 1.2 | 96
CC(C)(C)c1nc(CN2CCC(C(=O)Nc3nncs3)CC2)no1 | i | 1 | 94
CCOC(=O)c1c(C)[nH]c(C(=O)NC(C)C)c1C | i | 0.96 | 91
COc1cc(C2=NNC(=NC3CCCCC3)SC2)cc(OC)c1OC | i | 1.1 | 98
CC[C@H](C)[C@H]1O[C@]2(CC[C@@H]1C)C[C@@H]1C[C@@H](C/C=C(\C)[C@@H](O[C@H]3C[C@H](OC)[C@@H](O[C@H]4C[C@H](OC)[C@@H](O)[C@H](C)O4)[C@H](C)O3)[C@@H](C)/C=C/C=C3\CO[C@@H]4[C@H](O)C(C)=C[C@@H](C(=O)O1)[C@]34O)O2 | i | · | · | CFTR F508del fold 25 µM=0.72&0.61;CFTR F508del viability 25 µM=48&25
Cn1cc(S(=O)(=O)N2CCCC2)cc1C(=O)OC1CCOC1=O (stereo not drawn) | i | 1.1 | 107
COc1ccc(CN=C2NN=C(c3cc(C)n(Cc4ccco4)c3C)CS2)cc1 | i | 0.98 | 89
COCCN1C(=O)C(=O)N(CN2CCC(Cc3ccccc3)CC2)C1=O | i | 1 | 107
COc1cc(CN)ccc1OCC(C)C | i | 0.74 | 55
O=C1C(=O)N(CN2CCN(Cc3ccc4c(c3)OCO4)CC2)C(=O)N1Cc1ccccc1 | i | 1.1 | 100
CN1Cc2c(N)cccc2C(c2ccccc2)C1 (stereo not drawn) | i | · | · | CFTR F508del fold 25 µM=1.1;CFTR F508del viability 25 µM=110
CSc1nnnn1-c1ccc(OC(F)(F)F)cc1 | i | 0.98 | 94
CCC[C@@H]1C[C@@H](C(=O)N[C@H]([C@H]2O[C@H](SC)[C@H](O)[C@@H](O)[C@H]2O)[C@H](C)O)N(C)C1 | i | · | · | CFTR F508del fold 25 µM=1.1;CFTR F508del viability 25 µM=100
Cc1ccc(CNc2nc(C)nc3sc4c(c23)CCC4)cc1 | i | 0.91 | 83
COC(=O)c1cc(/C=C/C(=O)NC(C)(C)C)oc1C | i | 0.77 | 67
CC(C)(Oc1ccc(Cl)cc1)C(=O)NCCCN1CCCC1=O | i | 1 | 96
Fc1ccc(Oc2ccncc2)c(Br)c1 | i | 1.1 | 103
O=C1CCC(N2C(=O)c3ccccc3C2=O)C(=O)N1 (stereo not drawn) | i | · | · | CFTR F508del fold 25 µM=1.1&1.1&1.1;CFTR F508del viability 25 µM=113&95&105

(further entries)
SMILES | CFTR F508del | CFTR F508del fold 10 ug/mL | CFTR F508del viability 10 ug/mL | others
Cn1cnn(CN2CCN(c3ccc([N+](=O)[O-])nc3)CC2)c1=S | i | 0.91 | 94
O=C(COC(=O)C1(c2ccccc2)CC1)N1c2ccccc2NC(=O)C12CCCC2 | i | 1 | 84
CN1/C(=C/C(=O)COC(=O)c2cccc3ccccc23)C(C)(C)c2ccccc21 | i | 1.1 | 95
Cc1nc2nc(C(F)(F)F)nn2c(C)c1CCC(=O)NC1CCN(C)CC1 | i | 1 | 92
O=S(=O)(NCc1ccc(-n2cncn2)nc1)N1CCCCC1 | i | 1.1 | 86
O=C(c1c[nH]c2ccccc12)C(Sc1nc2ccccc2s1)c1ccccc1 (stereo not drawn) | i | 0.97 | 79
NNCCc1ccccc1 | i | · | · | CFTR F508del fold 25 µM=1;CFTR F508del viability 25 µM=111
COc1cccc(-c2[nH]ncc2CNCC(C2CCOC2)N2CCOCC2)c1 (stereo not drawn) | i | 1 | 103
CNc1snc(C)c1C(=O)OCC(=O)c1cccs1 | i | 1 | 106
CC(=O)[C@H]1CCC2C3C=CC4=CC(=O)CC[C@@]4(C)C3CC[C@@]21C (stereo partly drawn) | i | · | · | CFTR F508del fold 25 µM=0.88;CFTR F508del viability 25 µM=85
COc1ccc(-c2noc(CS(=O)(=O)Cc3csc(-c4ccccc4)n3)n2)cc1OC | i | 1 | 104
Cc1cccc2nc(CSc3ccc4ccccc4n3)cc(=O)n12 | i | 1 | 83
CCCN(Cc1ccc(C)cc1)CN1C(=O)NC2(C1=O)C(C)CCCC2C (stereo not drawn) | i | 1.1 | 101
Fc1c(-c2ccccc2)nc2ccc(Cl)cc2c1-c1ccccc1 | i | 1.1 | 96
CC(C)(C)OC(=O)N1CCN(C(=O)CNC(=O)c2csc(Br)c2)CC1 | i | 0.89 | 88
S=c1[nH]nc(Cc2ccccc2)n1-c1ccccc1 | i | 0.96 | 92
COc1cc(-c2nc(=S)n3ccsc3n2)cc(OC)c1OC | i | 1.1 | 97
CCc1nnc(NC(=O)C(CCSC)NC(=O)c2ccco2)s1 (stereo not drawn) | i | 0.94 | 87
O=[N+]([O-])c1ccccc1S(=O)(=O)N1CCN(Cn2ccn(-c3cccc(Cl)c3)c2=S)CC1 | i | 0.97 | 100
COc1ccc([N+](=O)[O-])cc1NC(c1ccccc1)c1ccccc1 | i | 0.99 | 101
COc1ccc(C(NS(=O)(=O)N2CC(C)OC(C)C2)c2nccn2C)cc1 (stereo not drawn) | i | 1 | 92
CN(C)S(=O)(=O)N1CCN(Cc2ccccc2CN2CCN(S(=O)(=O)N(C)C)CC2)CC1 | i | 0.9 | 94
Cc1ccc(S(=O)(=O)N(C)Cc2ccc(Br)o2)s1 | i | 1.3 | 89
CN1C2CC(OC(=O)[C@H](CO)c3ccccc3)C[C@H]1[C@H]1OC21 (stereo partly drawn) | i | · | · | CFTR F508del fold 25 µM=1.1;CFTR F508del viability 25 µM=105
CCS(=O)(=O)CCn1c([N+](=O)[O-])cnc1C | i | · | · | CFTR F508del fold 25 µM=1&0.88;CFTR F508del viability 25 µM=86&93
CSc1nc(C)c(CCC(=O)Nc2nccs2)c(=O)[nH]1 | i | 0.96 | 87
Cn1c(SCn2nnc3ccccc3c2=O)nc2ccccc21 | i | 1 | 88
C=CCN(CC=C)CC(O)COc1ccccc1 (stereo not drawn) | i | 1 | 89
CC1(C)C2CCC1(C)C(NC(=O)C1CCC1)C2 (stereo not drawn) | i | 1 | 83
Cc1sc2nc(CSc3nnc(NC(C)C)s3)nc(N)c2c1C | i | 1.1 | 92

An excerpt from above in order of number of heavy atoms, lowest first.
SMILES | CFTR F508del | CFTR F508del fold 10 ug/mL | CFTR F508del viability 10 ug/mL | others
CC1(C)C2CCC1(C)C(NC(=O)C1CCC1)C2 (stereo not drawn) | i | 1 | 83
CSc1nc(C)c(CCC(=O)Nc2nccs2)c(=O)[nH]1 | i | 0.96 | 87
Cn1c(SCn2nnc3ccccc3c2=O)nc2ccccc21 | i | 1 | 88

Screens deposited in PubChem by Southern Research Institute.

A portion of the library; count on the stated rates, not on these rows.
